Bioassay records as filed in PubChem.
Autofluor counter: counter-screen for toxin protease inhibitors: compound fluorescence; fluorescence intensity (test concentration not listed); AID 624483; 3.1% of 360,000 active; compound autofluorescence counterscreen, microsphere flow cytometry; active compounds read high;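 active means at least 3 SD above the mean of all compounds, about 16000 in these data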;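 further: 100 nL of 1 mM stock went into each well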
Starred values were filed as active, the others as inactive. Not all compounds are listed. The share of hits here may be higher or lower than overall.

O=S(=O)(c1ccc(F)cc1)c1nc(-c2ccco2)oc1NCCCn1ccnc1
  Autofluor counter: 3924

Cc1cc(C)c(C(O)c2ncc(-c3ccccc3F)[nH]2)c(C)c1 (stereo unspecified)
  Autofluor counter: 2912

O=c1[nH][nH]c2c1[C@H](c1ccccc1)O[C@H](C1CCCCC1)C2
  Autofluor counter: 6222

CC1(C(=O)NS(=O)(=O)C2CC2)CCN(C(=O)c2ccccc2F)C1 (stereo unspecified)
  Autofluor counter: 3027

Cc1oc(-c2ccccc2)nc1C(=O)OCC(=O)NCc1ccc(F)cc1
  Autofluor counter: 3865

CC1(C(=O)N2CCCCC2)CCN1C(=O)C1(c2ccccc2)CC1 (stereo unspecified)
  Autofluor counter: 3602

CC1(C(=O)NS(=O)(=O)c2ccc(Cl)cc2)CCN1C(=O)c1ccccc1CCc1ccccc1 (stereo unspecified)
  Autofluor counter: 2939

Cc1ccc(C(O)c2ncc(-c3ccccc3C(F)(F)F)[nH]2)cc1F (stereo unspecified)
  Autofluor counter: 3990

CN(C)c1nc(N)nc2c1ncn2C1OC(CO)CC1O (stereo unspecified)
  Autofluor counter: 4329

CCOC1=C2[C@@H](CN(S(=O)(=O)c3ccc(C)cc3)[C@H]2c2ccccc2F)[C@H]2C(=O)NC(=O)[C@H]2C1
  Autofluor counter: 5770

Cc1cc2nc(-c3ccccc3)c(Cc3ccccc3)n2c(C)c1Br
  Autofluor counter: 5695

CN(C)c1ncnc2c1ncn2[C@H]1CN(Cc2ccncc2)C[C@@H](CO)O1
  Autofluor counter: 4007

O=C(O)C(=Cc1ccnc2ccccc12)C(=O)O
  Autofluor counter: 3700

O=C(NCc1ccc(C(F)(F)F)cc1)c1cccc2c(-c3cccnc3)coc12
  Autofluor counter: 3827

CC(=O)N1CCCc2cc(S(=O)(=O)N(C)CC(=O)Nc3ccccc3)ccc21
  Autofluor counter: 3780

Fc1cccc(Cc2c(-c3cccc(Cl)c3)nc3ccc(Cl)cn23)c1
  Autofluor counter: 7068

CCCCn1nnnc1C(c1ccccc1)N1CCN(c2cccc(C(F)(F)F)n2)CC1 (stereo unspecified)
  Autofluor counter: 6150

C[C@@H]1CN([C@@H](C)CO)C(=O)CCCn2nncc2CO[C@H]1CN(C)S(C)(=O)=O
  Autofluor counter: 3765

CC(=O)Nc1cc(-c2cccc(C(=O)NCCO)c2)cn2c(-c3cccc(C(F)(F)F)c3)cnc12
  Autofluor counter: 3678

COc1ccc(NC(=O)C[C@H]2C(=O)N(C3CCCCC3)C[C@@H]2CSC)cc1
  Autofluor counter: 3528

Brought forward from above: 2 entries, then new ones.
CC(=O)Nc1cc(-c2cccc(C(=O)NCCO)c2)cn2c(-c3cccc(C(F)(F)F)c3)cnc12
  Autofluor counter: 3678

COc1ccc(NC(=O)C[C@H]2C(=O)N(C3CCCCC3)C[C@@H]2CSC)cc1
  Autofluor counter: 3528

CC(C)(C)c1ccc(C(O)c2ncc(-c3ccccc3)[nH]2)cc1 (stereo unspecified)
  Autofluor counter: 3139

COc1cc(C=C2NC(=O)NC2=O)ccc1O
  Autofluor counter: 3587

O=C(CNc1cc(S(=O)(=O)N2CCOCC2)ccc1N1CCCC1)Nc1ccc(Cl)cc1F
  Autofluor counter: 3845

CNC(=O)C[C@H]1C(=O)N(c2ccccc2)C[C@@H]1CSC
  Autofluor counter: 3340

C[C@@H]1CN([C@@H](C)CO)C(=O)CCCn2nncc2CO[C@@H]1CN(C)C(=O)Nc1ccc(C(C)(C)C)cc1
  Autofluor counter: 3719

Cc1cn([C@H]2C[C@H](O)[C@@H](CCC(=O)NCc3ccc4c(c3)OCO4)O2)c(=O)[nH]c1=O
  Autofluor counter: 6015

O=C(CC1CCCC1)N1CCN(S(=O)(=O)c2c(F)cccc2F)CC1
  Autofluor counter: 3654

Cc1ccc(-c2nc3ccc(Cl)cn3c2Cc2ccsc2)cc1
  Autofluor counter: 4770

COc1cccc(NC(=O)C2(C)CCN2C(=O)Cc2cccc3ccccc23)c1 (stereo unspecified)
  Autofluor counter: 3606

CCCCCCn1c(=O)n2n(c1=O)C[C@]1(OC(=O)Nc3c(C)noc3C)CN(S(=O)(=O)c3ccc(C)cc3)C[C@]1(O)C2
  Autofluor counter: 3821

CC(C)N1CCC(C)(C(=O)Nc2ccc(-n3cccc3)cc2)C1 (stereo unspecified)
  Autofluor counter: 4511

CCN(c1ccccc1)S(=O)(=O)c1ccc(C(=O)NC2CCCCC2)cc1
  Autofluor counter: 3815

COc1cccc(CNc2nc3cc(-c4ccc(F)cc4)sc3c(=O)n2C)c1
  Autofluor counter: 3862

O=C(c1[nH]c(C(F)(F)F)nc1-c1ccccc1)N1CCc2c([nH]c3ccccc23)C1
  Autofluor counter: 4434

Cc1ccc(S(=O)(=O)Nc2ccc3c(c2)C(=O)N([C@H](C)CO)C[C@H](C)[C@@H](CN(C)C(=O)NC2CCCCC2)OCCCC[C@@H](C)O3)cc1
  Autofluor counter: 3940

Cn1c(=O)c2cc(NC(=S)NC3CC3)ccc2n1Cc1ccccc1
  Autofluor counter: 3699

CCC(=O)N1CCC1(C)C(=O)Nc1ccc(F)cc1 (stereo unspecified)
  Autofluor counter: 3398

Cc1ccc2ccccc2c1C(O)c1ncc(-c2ccccc2)[nH]1 (stereo unspecified)
  Autofluor counter: 3932

CCOC(=O)c1ccccc1NC(=O)COC(=O)C(CC)Oc1ccccc1 (stereo unspecified)
  Autofluor counter: 3501

CCc1ccc([C@@H]2C[C@H]3[C@@H](CN2S(=O)(=O)c2ccc(C)cc2)C(=O)C[C@@H](c2ccc(C)cc2)N3S(=O)(=O)c2ccc(C)cc2)cc1
  Autofluor counter: 2931

Cn1cc(-c2cccc3nncn23)cn1
  Autofluor counter: 3366

Cn1ccc2c(N(c3ccccc3)C3CCCCC3)cc3c(c21)C1CCC3O1 (stereo unspecified)
  Autofluor counter: 6655

CCOC(=O)C1=C(C)NC(C)=C(C(=O)OCC)C1C(=O)OCC(=O)Nc1ccc(NC(C)=O)cc1
  Autofluor counter: 3819

C[C@H](O)C#Cc1cnc2c(c1)C(=O)N([C@H](C)CO)C[C@@H](C)[C@H](CN(C)C(=O)Nc1ccc(C(F)(F)F)cc1)O2
  Autofluor counter: 3568

COc1cc(Cn2c3ccc(NC(=O)NCc4ccc(F)cc4)cc3c(=O)n2C)ccc1F
  Autofluor counter: 3978

CCCCCCCCN1C(=O)[C@H](CC(=O)NCCCC)C[C@@]2(C(=O)OC)CCCCC=C12
  Autofluor counter: 6296

CC1(C(=O)NCc2ccc(C(F)(F)F)cc2)CCN1C1Cc2ccccc2C1 (stereo unspecified)
  Autofluor counter: 3547

O=C(C1CCCCC1)N1C[C@H](n2cc(-c3ccc(F)cc3)nn2)[C@@H](O)C[C@@H]1c1ccccc1
  Autofluor counter: 3911

COCCNC(=O)c1cc2c(Br)ccc(Br)c2nc1N
  Autofluor counter: 4281

COCCN(C(=O)COC(=O)C1CCCCC1)c1c(N)n(Cc2ccccc2)c(=O)[nH]c1=O
  Autofluor counter: 3151

COc1ccc(Cl)cc1Nc1nc(Cl)nc(NCCO)n1
  Autofluor counter: 3631

CCOC(=O)C1(C)CCCCCN1C(=O)c1snnc1C (stereo unspecified)
  Autofluor counter: 2869

COc1ccc(CC(N)c2csc(NC(=O)Nc3cc(OC)ccc3OC)n2)cc1 (stereo unspecified)
  Autofluor counter: 3927

O=C(Nc1nnc([C@@H]2C[C@H](O)[C@@H](CO)O2)s1)Nc1ccccc1Oc1ccccc1
  Autofluor counter: 3365

COc1ccccc1C(=O)N/C(=C\c1cn(C)c2ccccc12)C(=O)NCCN1CCOCC1
  Autofluor counter: 2980

COCCNC(=O)C1(C)CCCN(Cc2ccc(-c3ccccn3)cc2)C1 (stereo unspecified)
  Autofluor counter: 3518

Cn1c(=O)c2cc(NC(=O)NCc3ccc(F)cc3)ccc2n1C
  Autofluor counter: 4069

CC(C)C[C@H]1CN(CCCC[C@@H]2CNC(=O)C(=O)N2CC2CCCCC2)C(=O)C(=O)N1CC1CCCCC1
  Autofluor counter: 4202

Clc1ccc2nc(-c3ccco3)c(Cc3ccccc3)n2c1
  Autofluor counter: 4578

S=c1[nH]ncn1/N=C/c1ccco1
  Autofluor counter: 3917

The list continues.
compound,Autofluor counter
CC(=O)Nc1ccccc1OCCCN1CCC(C(O)(c2ccccc2)c2ccccc2)CC1,6116
O=C(c1cc2c(c(-c3cccc(-c4ccncc4)c3)n1)[C@@H](CCO)N(C(=O)c1ccc3c(c1)OCO3)C2)N1CCOCC1,5921
CCOC(=O)C1=C(Nc2ccccc2)CSC1,3359
CC1Sc2ccccc2N(Cc2ccc(OC(F)(F)F)cc2)C1=O (stereo unspecified),2898
O=C1NCN(c2ccccc2)C12CCN(C(CCc1ccccc1)c1nnnn1Cc1ccccc1)CC2 (stereo unspecified),5946
Cc1ccc2c(CN(C)Cc3ccccc3)cc(=O)oc2c1,5790
C[C@H](c1ccccc1)N1C[C@@H](COCc2ccccc2)Oc2cc(N3CC[C@H](N(C)C)C3)ccc2S1(=O)=O,4369
Fc1ccc(-c2nc3c4ccccc4ccn3c2Cc2cccc(Cl)c2)cc1,7128
CNc1cc(-c2ccc(C(=O)OC)cc2)ncn1,3622
Cc1cccc(C)c1-n1nnnc1C(c1ccnc2ccccc12)N1CCCC1 (stereo unspecified),4385
Cc1cc(C(=O)N2CCC2(C)C(=O)NS(=O)(=O)c2ccccc2Cl)nn1C (stereo unspecified),3793
CCOC(=O)C1(C)CCCN1C(=O)c1cccc2ccccc12 (stereo unspecified),3356
O=C(NCc1ccccc1)c1cc(C2CCCN(C(=O)c3ccc4c(c3)CCO4)C2)on1 (stereo unspecified),3442
O=C(COC(=O)/C=C/c1ccc2c(c1)OCO2)NCc1ccc(F)cc1,3926
Cc1ccc(S(=O)(=O)N2CC3(O)CN(C(=O)OC(C)C)N(C(=O)OC(C)C)CC3(OC(=O)NC3CC3)C2)cc1 (stereo unspecified),7071

Pulled by compound from the entries so far:
compound,Autofluor counter
Cc1ccc(S(=O)(=O)N2CC3(O)CN(C(=O)OC(C)C)N(C(=O)OC(C)C)CC3(OC(=O)NC3CC3)C2)cc1 (stereo unspecified),7071
CC1Sc2ccccc2N(Cc2ccc(OC(F)(F)F)cc2)C1=O (stereo unspecified),2898
C[C@H](c1ccccc1)N1C[C@@H](COCc2ccccc2)Oc2cc(N3CC[C@H](N(C)C)C3)ccc2S1(=O)=O,4369
Cc1cccc(C)c1-n1nnnc1C(c1ccnc2ccccc12)N1CCCC1 (stereo unspecified),4385

Continuation.
compound,Autofluor counter
COc1ccccc1CNc1nc(Nc2ccccc2OC)c2sccc2n1,2835
CC1(C(=O)NS(=O)(=O)c2ccc(Cl)cc2)CCN1C(=O)CCc1cccs1 (stereo unspecified),3819
NC(=O)c1cccc(-c2ccnc3c2CC(C(=O)NCc2cccc(Cl)c2)O3)c1 (stereo unspecified),3829
CC1CC(O)C2C3(C)CCCC2(COC3=O)C12CCC1(CCOC1=O)O2 (stereo unspecified),4132
C1=NCCCN2CCCCC12 (stereo unspecified),2804
CC(C)CC1C(=O)N(Cc2cn(CCC3OCCCO3)nn2)CCS(=O)(=O)N1Cc1ccc(-c2ccc(Cl)c(Cl)c2)cc1 (stereo unspecified),3687
CC1(C(=O)NCCc2ccccc2)Cc2c(-c3ccc4c(c3)OCO4)ccnc2O1 (stereo unspecified),3952
COc1ccc(C(=O)NCC2CCCN2S(=O)(=O)c2ccccc2)cc1OC (stereo unspecified),4095
O=C(COc1ccccc1)NC(=S)Nc1cccc2c(O)cccc12,3835
CC(C)(C)c1cc(NC(=O)C2(C)CCN2C(=O)C2(c3ccccc3)CCCC2)no1 (stereo unspecified),3898
O=S1(=O)CCN(C2CCCCCCCCCCC2)CC1,3497
CCOC(=O)c1cc2c(OC)c(OC)ccc2c2[nH]cc(C#N)c(=O)c12,2887
COC(=O)c1cccc(CN2C(=O)C(C)Sc3cc(Cl)ccc32)c1 (stereo unspecified),2805
COc1cccc(S(=O)(=O)N(C)C[C@@H]2OCc3cnnn3CCCC(=O)N([C@H](C)CO)C[C@@H]2C)c1,3557
Cc1ccc(C(O)c2ncc(-c3ccc(Cl)cc3)[nH]2)cc1 (stereo unspecified),3819

The list goes on; the last two above are carried over.
compound,Autofluor counter
COc1cccc(S(=O)(=O)N(C)C[C@@H]2OCc3cnnn3CCCC(=O)N([C@H](C)CO)C[C@@H]2C)c1,3557
Cc1ccc(C(O)c2ncc(-c3ccc(Cl)cc3)[nH]2)cc1 (stereo unspecified),3819
CCCCN(C)c1c(C)nc2ccc(C(=O)N3CCN(C(C)=O)CC3)cn12,2871
O=C(COC(=O)c1ccc2ccccc2c1)NCc1ccccc1,3849
CCN(CC)S(=O)(=O)c1ccc(C(=O)NCC(=O)NCc2ccc3c(c2)OCO3)cc1,6912
CC(=O)OCc1ccc(C2=CC(=O)CC(C)(C)C2=O)cc1,3047
CC(=O)OC[C@@H]1CN(Cc2cccc(C(F)(F)F)c2)C[C@H](n2cnc3c(N4CCOCC4)ncnc32)O1,3908
COCCNc1nc(Nc2ccc(C)cc2C)c2sc(-c3ccccc3)cc2n1,3550
CCN(CC)CCNC(=O)c1ccc(NC(=O)c2ccc(-n3cncn3)c([N+](=O)[O-])c2)cc1,2861
CC1(C(=O)O)CCN1C(=O)/C=C/c1ccccc1 (stereo unspecified),3913
CN(C(=O)c1cc(COc2ccc(F)cc2Cl)on1)C1CCOC1 (stereo unspecified),3977
Cc1ccccc1S(=O)(=O)N1[C@@H](c2cccc(Cl)c2)C(C(=O)OC(C)(C)C)=CC[C@H]1c1ccc(Cl)cc1,4429
CN(Cc1ccccc1C(F)(F)F)C(=O)C1CCC(=O)N(CC2CCCCC2)C1 (stereo unspecified),3484
CCCCCCN1C[C@@H](n2cc(COC(=O)c3ccccc3)nn2)[C@H](O)C[C@@H]1c1ccc(Cl)cc1,3767
O=C(O)CC(C(=O)O)C(=Cc1ccccc1)c1ccccc1 (stereo unspecified),3729
COC(=O)c1ccc(CNC(=O)COC(=O)CNS(=O)(=O)c2ccc(C)cc2)cc1,3035
Cc1ccc(S(=O)(=O)NNC(=O)C23CCC(CC2)C3)cc1,3954

The listing continues.
compound,Autofluor counter
CC1(C)NC(=O)N(CC(=O)Nc2ccc(-c3ccccc3)cc2)C1=O,3504
CCN1CCN(c2ccc(S(=O)(=O)N3CCOCC3)cc2NC(=O)c2cc(F)c(F)c(F)c2F)CC1,3860
CC(N)c1csc(Nc2cc(Oc3ccccc3)ncn2)n1 (stereo unspecified),3807
Cc1cc(C)c(C)c(C(O)(C(=O)O)c2ccccc2)c1 (stereo unspecified),3016
